Bioassay records from PubChem.
FGF22 binding – FGF22 (human) thermal shift binding | Q9HCT0 | recombinant FGF22 thermal shift, SYPRO orange fluorescence; percent of sucrose octasulfate shift, DMSO zero | calls only at 9.99 µM | 340,000 tested, 1.5% active | AID 651658;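 active means melting point raised past a set limit in the mean and every replicate; three in four hits are not shown here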
Target sequence (Q9HCT0 whole entry, looked up): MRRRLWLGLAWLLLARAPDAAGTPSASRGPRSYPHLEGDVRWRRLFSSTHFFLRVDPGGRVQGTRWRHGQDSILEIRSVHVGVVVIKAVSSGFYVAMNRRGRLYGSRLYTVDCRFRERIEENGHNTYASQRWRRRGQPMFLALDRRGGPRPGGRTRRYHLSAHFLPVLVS
Calls only.

`COC(=O)c1ccc2nc(-c3ccccc3)c(Cc3cccc(Cl)c3)n2c1` gave FGF22 binding inactive.
`C[C@@H]1CN([C@@H](C)CO)C(=O)c2cccc(NC(=O)Nc3ccccc3)c2O[C@H]1CN(C)Cc1ccc(Oc2ccccc2)cc1` gave FGF22 binding inactive.
`C[C@@H]1CN([C@H](C)CO)C(=O)c2cc(NS(=O)(=O)c3ccc(Cl)cc3)ccc2O[C@@H]1CN(C)Cc1ccc(Oc2ccccc2)cc1` gave FGF22 binding inactive.
For C[C@@H]1CN([C@@H](C)CO)C(=O)c2cc(NC(=O)Nc3cccc4ccccc34)ccc2O[C@H]1CN(C)Cc1ccc(C(F)(F)F)cc1 the results were FGF22 binding inactive.
`CNC[C@H]1Oc2c(NS(=O)(=O)c3c(C)noc3C)cccc2C(=O)N([C@@H](C)CO)C[C@H]1C` gave FGF22 binding inactive.
Screening CCC(=O)N[C@H]1C=C[C@@H](CC(=O)NCc2ccc(OC)cc2)O[C@H]1CO returned FGF22 binding inactive.
For Cc1noc(C)c1NC(=O)Nc1ccc2c(c1)C(=O)N([C@H](C)CO)C[C@H](C)[C@H](CN(C)S(=O)(=O)c1cn(C)cn1)OCCCC[C@@H](C)O2 the results were FGF22 binding inactive.
C[C@H](CO)N1C[C@H](C)[C@H](CN(C)S(=O)(=O)c2ccccc2)Oc2c(NC(=O)NC3CCCCC3)cccc2C1=O was read as FGF22 binding inactive.
`C[C@@H]1CN([C@H](C)CO)C(=O)c2cccc(NS(C)(=O)=O)c2O[C@H]1CN(C)C(=O)Nc1ccc(F)cc1` gave FGF22 binding inactive.
`COc1ccc(-c2cnc3c(c2)C(=O)N([C@@H](C)CO)C[C@H](C)[C@H](CN(C)C(=O)C2CCCCC2)O3)cc1` gave FGF22 binding inactive.

Of the compounds above, two contain an aryl methoxy group.
Screening CCC(=O)N[C@H]1C=C[C@@H](CC(=O)NCc2ccc(OC)cc2)O[C@H]1CO returned FGF22 binding inactive.
`COc1ccc(-c2cnc3c(c2)C(=O)N([C@@H](C)CO)C[C@H](C)[C@H](CN(C)C(=O)C2CCCCC2)O3)cc1` gave FGF22 binding inactive.

Later entries
For C[C@@H]1CCCCO[C@@H](CN(C)Cc2ccncc2)[C@H](C)CN([C@H](C)CO)C(=O)c2cc(NS(C)(=O)=O)ccc2O1 the results were FGF22 binding inactive.
For Cc1ccc(S(=O)(=O)Nc2ccc3c(c2)C(=O)N([C@H](C)CO)C[C@@H](C)[C@H](CN(C)C)OCCCC[C@@H](C)O3)cc1 the results were FGF22 binding inactive.
Screening COc1ccc(CN(C)C[C@H]2Oc3c(NS(=O)(=O)c4cn(C)cn4)cccc3C(=O)N([C@@H](C)CO)C[C@@H]2C)cc1 returned FGF22 binding inactive.
Screening C[C@@H]1CN([C@@H](C)CO)C(=O)c2cc(C#Cc3ccncc3)cnc2O[C@H]1CN(C)CC1CCCC1 returned FGF22 binding inactive.
`Cc1noc(C)c1S(=O)(=O)Nc1ccc2c(c1)C(=O)N([C@H](C)CO)C[C@H](C)[C@@H](CN(C)C(=O)Cc1ccccc1)OCCCC[C@H](C)O2` gave FGF22 binding inactive.
For Cc1ccc(S(=O)(=O)N(C)C[C@@H]2OCCCC[C@H](C)Oc3ccc(NC(=O)Nc4ccc5c(c4)OCO5)cc3C(=O)N([C@H](C)CO)C[C@@H]2C)cc1 the results were FGF22 binding inactive.
For C[C@@H]1CN([C@@H](C)CO)C(=O)c2cc(-c3ccccc3F)cnc2O[C@@H]1CN(C)Cc1cccc(C(=O)O)c1 the results were FGF22 binding inactive.
For C[C@H](CO)N1C[C@H](C)[C@@H](CN(C)C(=O)Nc2ccc3c(c2)OCO3)Oc2cc(C3=CCCC3)ccc2S1(=O)=O the results were FGF22 binding inactive.
C=CCN1[C@@H](C)[C@H](c2ccccc2)Oc2cccc(NCC(C)C)c2S1(=O)=O was read as FGF22 binding inactive.
For CCCNC(=O)C[C@H]1CC[C@@H]2[C@H](COC[C@H](O)CN2C(=O)Nc2ccccc2OC)O1 the results were FGF22 binding inactive.
Screening COc1ccc(S(=O)(=O)Nc2ccc3c(c2)[C@@H]2C[C@H](CC(=O)O)O[C@@H](CO)[C@@H]2O3)cc1 returned FGF22 binding inactive.
For C[C@@H]1CN([C@H](C)CO)C(=O)c2cccc(NC(=O)c3ccncc3)c2O[C@@H]1CN(C)Cc1ccncc1 the results were FGF22 binding inactive.
For O=C(N[C@H]1CC[C@@H](CCNC(=O)C2CCCC2)O[C@H]1CO)c1ccncc1 the results were FGF22 binding inactive.
Screening O=C(C[C@@H]1CC[C@@H]2[C@H](COC[C@H](O)CN2Cc2ccccc2F)O1)NC1CCC1 returned FGF22 binding inactive.
Screening C[C@@H]1CCCCO[C@@H](CN(C)C(=O)C2CCCCC2)[C@H](C)CN([C@@H](C)CO)C(=O)c2cc(NS(=O)(=O)c3ccc(F)cc3)ccc2O1 returned FGF22 binding inactive.
Screening COc1ccc(CNC(=O)C[C@H]2C=C[C@H](NC(=O)c3ccc4c(c3)OCO4)[C@@H](CO)O2)cc1 returned FGF22 binding inactive.
Cn1cnc(S(=O)(=O)N2CC[C@H]3[C@H](CO)Nc4ccc(-c5cccc(F)c5)cc4[C@H]32)c1 was read as FGF22 binding inactive.
Screening C[C@H]1CN([C@@H](C)CO)C(=O)c2cc(-c3ccncc3)cnc2O[C@@H]1CN(C)C returned FGF22 binding inactive.
Cc1noc(C)c1NC(=O)N(C)C[C@@H]1Oc2cc(C#CCC3CCCC3)ccc2S(=O)(=O)N([C@@H](C)CO)C[C@@H]1C was read as FGF22 binding inactive.
For CCNC(=O)C[C@H]1CC[C@@H]2[C@H](COC[C@@H](O)CN2C(=O)c2ccccn2)O1 the results were FGF22 binding inactive.
`Cc1ccc(S(=O)(=O)Nc2cccc3c2O[C@H](CN(C)S(=O)(=O)c2ccccc2)[C@@H](C)CN([C@H](C)CO)C3=O)cc1` gave FGF22 binding inactive.
C[C@@H]1CCCCO[C@@H](CN(C)S(=O)(=O)c2ccc(Cl)cc2)[C@H](C)CN([C@H](C)CO)C(=O)c2cc(NS(=O)(=O)c3cn(C)cn3)ccc2O1 was read as FGF22 binding inactive.
For COc1ccc2c3c([nH]c2c1)[C@H](CO)N(C(=O)c1ccccn1)CC31CN(C(=O)C2CCCC2)C1 the results were FGF22 binding inactive.
`O=C(NCC[C@@H]1CC[C@H](NC(=O)C2CCCCC2)[C@H](CO)O1)c1ccc(F)cc1` gave FGF22 binding inactive.
`CCCC#Cc1cnc2c(c1)C(=O)N([C@@H](C)CO)C[C@H](C)[C@@H](CN(C)C(=O)Nc1ccc(OC)cc1)O2` gave FGF22 binding inactive.
For CC(C)NC(=O)Nc1ccc2c(c1)C(=O)N([C@H](C)CO)C[C@H](C)[C@H](CN(C)S(C)(=O)=O)OCCCC[C@H](C)O2 the results were FGF22 binding inactive.
C[C@@H]1CCCCO[C@@H](CN(C)Cc2ccc(C(=O)O)cc2)[C@H](C)CN([C@@H](C)CO)C(=O)c2cc(N(C)C)ccc2O1 was read as FGF22 binding inactive.
CCC(=O)N1C[C@H]2[C@@H](c3ccccc31)[C@@H](CO)N2Cc1ccccc1Cl was read as FGF22 binding inactive.
Screening COc1ccc(NC(=O)N(C)C[C@@H]2OCCCC[C@@H](C)Oc3ccc(NC(=O)c4ccccc4)cc3C(=O)N([C@@H](C)CO)C[C@H]2C)cc1 returned FGF22 binding inactive.
For CC(=O)N(C[C@@H]1N[C@@H](CO)[C@H]1c1ccc(-c2cccnc2)cc1)C1CCCC1 the results were FGF22 binding inactive.

In the list so far, these contain two or more sulfur atoms:
`Cc1ccc(S(=O)(=O)Nc2cccc3c2O[C@H](CN(C)S(=O)(=O)c2ccccc2)[C@@H](C)CN([C@H](C)CO)C3=O)cc1` gave FGF22 binding inactive.
C[C@@H]1CCCCO[C@@H](CN(C)S(=O)(=O)c2ccc(Cl)cc2)[C@H](C)CN([C@H](C)CO)C(=O)c2cc(NS(=O)(=O)c3cn(C)cn3)ccc2O1 was read as FGF22 binding inactive.

Next structures follow.
Screening C[C@@H]1CN([C@H](C)CO)C(=O)c2cc(NC(=O)Nc3ccccc3)ccc2O[C@@H]1CN(C)Cc1ccncc1 returned FGF22 binding inactive.
Screening CN1C(=O)c2cc(NS(=O)(=O)c3ccc(F)cc3)ccc2OC[C@H]2O[C@H](CC(=O)O)CC[C@@H]21 returned FGF22 binding inactive.
For COC(=O)C[C@H]1C[C@@H]2c3cc(NC(=O)CC4CC4)ccc3O[C@@H]2[C@@H](CO)O1 the results were FGF22 binding inactive.
For Cc1noc(C)c1S(=O)(=O)N(C)C[C@H]1Oc2ccc(NC(=O)NC(C)C)cc2CC(=O)N([C@@H](C)CO)C[C@H]1C the results were FGF22 binding inactive.
`CNC[C@H]1Oc2cc(C#CC3CCCCC3)ccc2S(=O)(=O)N([C@@H](C)CO)C[C@H]1C` gave FGF22 binding inactive.
`C[C@H]1CN([C@@H](C)CO)C(=O)c2cccc(NC(=O)Nc3ccc(F)cc3)c2O[C@H]1CN(C)Cc1ccc(C(F)(F)F)cc1` gave FGF22 binding inactive.
Screening C[C@@H]1CN([C@H](C)CO)C(=O)c2cc(NC(=O)CCC(F)(F)F)ccc2O[C@@H](C)CCCCO[C@@H]1CN(C)S(=O)(=O)c1ccc(F)cc1 returned FGF22 binding inactive.
Screening O=C(C[C@@H]1CC[C@@H]2[C@H](COC[C@H](O)CN2C(=O)Cc2ccccc2)O1)NC1Cc2ccccc2C1 returned FGF22 binding inactive.
For O=C(C1CCCCC1)N1C[C@H]2[C@@H](c3ccccc31)[C@H](CO)N2C(=O)Cc1ccccn1 the results were FGF22 binding inactive.
Screening C[C@@H]1CN([C@H](C)CO)S(=O)(=O)c2ccc(C3=CCCC3)cc2O[C@H]1CN(C)C(=O)C1CCOCC1 returned FGF22 binding inactive.
Screening C[C@H]1CN([C@@H](C)CO)C(=O)c2cc(NC(=O)Cc3cn(C)c4ccccc34)ccc2O[C@@H]1CN(C)C(=O)Nc1ccc(C(F)(F)F)cc1 returned FGF22 binding inactive.
`C[C@@H]1CCCCO[C@H](CN(C)C(=O)C2CCCCC2)[C@H](C)CN([C@@H](C)CO)C(=O)c2cc(NC(=O)C3CCCCC3)ccc2O1` gave FGF22 binding inactive.
For Cc1cccc(S(=O)(=O)N2CC[C@@H]3[C@H](CO)N(C)c4ccc(Br)cc4[C@@H]32)c1 the results were FGF22 binding inactive.
For COc1ccc(NC(=O)N(C)C[C@H]2Oc3c(NC(=O)c4ccncc4)cccc3C(=O)N([C@@H](C)CO)C[C@@H]2C)cc1 the results were FGF22 binding inactive.
Screening COc1ccccc1S(=O)(=O)N[C@@H]1CC[C@H](CCNC(=O)C2CCCCC2)O[C@@H]1CO returned FGF22 binding inactive.
COCCNC(=O)C[C@H]1C[C@@H]2c3cc(NS(=O)(=O)c4ccccc4)ccc3O[C@@H]2[C@H](CO)O1 was read as FGF22 binding inactive.
For COC(=O)c1cc2c(c3c4cc(F)ccc4n(S(=O)(=O)c4ccccc4)c13)C(=O)N(Cc1ccccc1OC)C2 the results were FGF22 binding inactive.
For O=C(N[C@H]1CC[C@H](CCNS(=O)(=O)c2ccc(F)cc2)O[C@@H]1CO)C1CCCC1 the results were FGF22 binding inactive.
C[C@@H]1CN([C@H](C)CO)C(=O)c2cc(-c3ccncc3)cnc2O[C@@H]1CN(C)C(=O)Cc1cccnc1 was read as FGF22 binding inactive.
`C/C=C/c1ccc([C@@H]2[C@H]3CN(C(=O)Nc4cccc(OC)c4)CC(=O)N3[C@H]2CO)cc1` gave FGF22 binding inactive.
`CO[C@@H](CN(C)C(=O)c1ccccc1F)[C@H](C)CN([C@H](C)CO)S(=O)(=O)c1ccc(F)cc1` gave FGF22 binding inactive.
Screening COc1ccc(NC(=O)Nc2ccc3c(c2)C(=O)N([C@@H](C)CO)C[C@@H](C)[C@@H](CN(C)C)O3)cc1 returned FGF22 binding inactive.
For COc1ccc(C#Cc2ccc([C@@H]3[C@H](CO)N4CCCCN(C(=O)c5ccncc5)C[C@@H]34)cc2)cc1 the results were FGF22 binding inactive.
`C[C@@H]1CN([C@H](C)CO)C(=O)c2cc(-c3cccc(F)c3)cnc2O[C@H]1CN(C)Cc1cncnc1` gave FGF22 binding inactive.
COc1ccc(NC(=O)N(C)C[C@@H]2Oc3c(NS(C)(=O)=O)cccc3C(=O)N([C@@H](C)CO)C[C@@H]2C)cc1 was read as FGF22 binding inactive.
For COc1ccc2c3c([nH]c2c1)[C@@H](CO)N(C(=O)CN(C)C)CC31CCN(CC2CC2)CC1 the results were FGF22 binding inactive.
Screening C[C@@H]1CN([C@@H](C)CO)C(=O)c2cc(NC(=O)CCN3CCOCC3)ccc2O[C@H]1CN(C)S(=O)(=O)c1cccs1 returned FGF22 binding inactive.
Screening CCCNC(=O)[C@H]1[C@H](CO)[C@H]2Cn3c(ccc(-c4cccc(OC)c4)c3=O)[C@@H]1N2C(=O)NCCC returned FGF22 binding inactive.
Screening Cc1noc(C)c1NC(=O)N(C)C[C@H]1Oc2ccc(NS(=O)(=O)c3cccs3)cc2CC(=O)N([C@@H](C)CO)C[C@H]1C returned FGF22 binding inactive.
For COc1cccc(CNC(=O)C[C@@H]2C=C[C@@H](NC(=O)C3CCC3)[C@@H](CO)O2)c1 the results were FGF22 binding inactive.
`C[C@@H]1CN([C@H](C)CO)C(=O)c2cccc(NS(=O)(=O)c3cccs3)c2O[C@H]1CN(C)Cc1ccc(C(F)(F)F)cc1` gave FGF22 binding inactive.
CCS(=O)(=O)N[C@@H]1C=C[C@H](CC(=O)NC2Cc3ccccc3C2)O[C@H]1CO was read as FGF22 binding inactive.

A draw from above in order of formula weight, smallest number first.
CCS(=O)(=O)N[C@@H]1C=C[C@H](CC(=O)NC2Cc3ccccc3C2)O[C@H]1CO was read as FGF22 binding inactive.
Screening COc1ccc(NC(=O)Nc2ccc3c(c2)C(=O)N([C@@H](C)CO)C[C@@H](C)[C@@H](CN(C)C)O3)cc1 returned FGF22 binding inactive.
Screening CCCNC(=O)[C@H]1[C@H](CO)[C@H]2Cn3c(ccc(-c4cccc(OC)c4)c3=O)[C@@H]1N2C(=O)NCCC returned FGF22 binding inactive.

Reprinted at random: two compounds from above
For CCNC(=O)C[C@H]1CC[C@@H]2[C@H](COC[C@@H](O)CN2C(=O)c2ccccn2)O1 the results were FGF22 binding inactive.
For Cc1ccc(S(=O)(=O)Nc2ccc3c(c2)C(=O)N([C@H](C)CO)C[C@@H](C)[C@H](CN(C)C)OCCCC[C@@H](C)O3)cc1 the results were FGF22 binding inactive.

Not all compounds are listed; the hit share may differ from the screen's.
